# Bioassay records from PubChem BioAssay.
# VACV Venus inh – inhibitors of vaccinia virus (Venus reporter); Vaccinia virus Venus reporter expression, fluorescence; 330,000 tested, 0.46% active; AID 720580; Potency, µM (doses to about 36.5 µM), without a hit: top-dose activity change, negative = inhibition, hits mostly inhibitors; active means well fitted inhibition curve with a large enough effect; inconclusive means small, poorly fitted or top-dose-only effect; inactive means no such curve, though single readings can be large or run the other way; tested in A549 cells; further: nearly all actives have a fitted effect of over 30% in size; inactives centre near -10
# Vaccinia mCherry – vaccinia inhibition (mCherry reporter); Vaccinia virus mCherry reporter infection, fluorescence; about a quarter of the inactives have no number; AID 720579; Potency, µM (doses to about 36.5 µM), without a hit: at the highest dose activity change, negative = inhibition, actives largely listed as inhibitors; 310,000 tested, 0.63% active; active = well fitted inhibition curve with a large enough effect; inconclusive = small, poorly fitted or top-dose-only effect; inactive = no such curve, though single readings can be large or run the other way; tested in A549 cells; further: nearly all actives have a fitted effect of over 35% in size; inactives centre near -10
# Starred values were filed as active, the others as inactive; i = inactive; ? = inconclusive; / = not tested or not shown; & = joins results of further samples; [ ] = another dose, or the depositor's remark. On the % scale 0 is the no-effect control and ±100 the full control effect; potency means the concentration at half of the fitted maximal effect.
# The first 2 entries, to show the layout:
nr	mol	VACV Venus inh	Vaccinia mCherry
1	CCC(=O)Oc1cc(C(C)(C)C)cc2cc(-c3nc(-c4ccc(OC)cc4OC)no3)c(=O)oc12	2%	-9%
2	O=C(C1=C(O)C(=O)N(CCN2CCOCC2)C1c1cccc([N+](=O)[O-])c1)c1cccs1 (stereo unspecified)	-6%	i

# Main list, from the start:
nr	mol	VACV Venus inh	Vaccinia mCherry
1	CCC(=O)Oc1cc(C(C)(C)C)cc2cc(-c3nc(-c4ccc(OC)cc4OC)no3)c(=O)oc12	2%	-9%
2	O=C(C1=C(O)C(=O)N(CCN2CCOCC2)C1c1cccc([N+](=O)[O-])c1)c1cccs1 (stereo unspecified)	-6%	i
3	CCOC(=O)[C@]12CCC=C1N(Cc1ccc(Cl)cc1Cl)C(=O)[C@H](CC(=O)N1CCCCC1)C2	-10%	-3%
4	CCC1CCCCN1CCCNC(=O)CNC(=O)c1nn(-c2ccc(OC)c(Cl)c2)c(=O)c2ccccc12 (stereo unspecified)	-1%	-15%
5	Cc1nnc(NC(=O)c2ccc(N3CCCC3=O)cc2)s1	-6%	-13%
6	CN1CCN(C(=O)c2ccc(-n3cccn3)nc2)CC1	3%	-6%
7	Cc1ccc(-c2cc(-c3coc4ccccc4c3=O)c3c(n2)-c2cc(Cl)ccc2OC3)cc1	7%	-2%
8	COC(=O)COc1ccc(C2NC(=O)NC(C)=C2C(=O)NCc2ccccc2)cc1OC (stereo unspecified)	9%	-4%
9	C=CCNC(=O)C1CC(=O)N(c2ccc(OCC(=O)N3CCCC3)cc2)C1 (stereo unspecified)	-11%	-21%
10	COc1ccc(/C=N/NC(=O)c2cc(OC)c(OC)c(OC)c2)cc1CN1CCc2cc(OC)c(OC)cc2C1C (stereo unspecified)	-16%	-11%
11	COC1(C(F)(F)F)NC(=O)N(c2ccc(F)cc2)C1=O (stereo unspecified)	12%	1%
12	CCOCCCNC(=O)c1cc2c(-c3ccc(OC)c(OC)c3)nn(C)c2s1	-8%	-3%
13	Cc1ccccc1NC(=O)Cn1nnc2ccccc21	-10%	-6%
14	Cc1cc(OC(=O)c2ccc(Cl)cc2Cl)c([N+](=O)[O-])c(=O)[nH]1	-3%	12%
15	CCOC1=C2CN(S(=O)(=O)c3ccc(C)cc3)C(c3ccccc3)CC2N(S(=O)(=O)c2ccc(C)cc2)C(c2ccc(Br)cc2)C1 (stereo unspecified)	-5%	-11%
16	CCOC(=O)Nc1cc(NC(=O)OCC)ncn1	-9%	-6%
17	COc1ccc(Cl)cc1S(=O)(=O)N1CCN=C1Cc1ccccc1	-14%	-21%
18	CSc1nc(NS(=O)(=O)c2cc(Br)ccc2Br)cc(=O)[nH]1	0%	i
19	COc1ccccc1N1CCN(C(=O)c2nc(-c3ccc(C)cc3)n3c2CCCCC3)CC1	-21%	-22%
20	Cc1ccc(C2=NS(=O)(=O)N(C)C(C(=O)Nc3cc(C)n(CC(=O)N4CCCCC4)n3)=C2)cc1	-13%	-13%
21	CC(C)(C)C(=O)O[C@H]1CC[C@@]2(C)C(=CC(=O)C3C2CC[C@]2(C)C(=O)CCC32)C1 (stereo partly specified)	4%	-8%
22	O=C(O)C(Cc1c[nH]c2ccccc12)N1CCS(=O)(=O)CC1 (stereo unspecified)	12%	i
23	CN(CC(=O)Nc1cccc(F)c1)C(=O)c1ccc(N2CCCCC2)c([N+](=O)[O-])c1	-18%	i
24	COC(=O)c1ccc(NC(=O)COc2coc(CN3CCc4ccccc43)cc2=O)cc1	-12%	-15%
25	Cc1ccc(C2=NNC(=O)C(c3c[nH]c4ccccc34)C2)cc1 (stereo unspecified)	-21%	-17%
26	CCCCCC1CC(CC(=O)Nc2nncs2)C(=O)O1 (stereo unspecified)	-11%	-18%
27	CCOC(=O)c1cccc(-c2c(-c3ccccc3)ncc3cc(OC)c(OC)cc23)c1	-17%	-14%
28	Cc1ccc(NC(=O)COc2ccccc2)cc1Cl	-6%	-10%
29	Nc1nnc(SCC(=O)NC2CCCCC2)n1-c1ccccc1	-9%	-7%
30	CSc1nc(NCCOC(C)=O)c(C#N)c(-c2ccc(C(C)(C)C)cc2)n1	-14%	-19%
31	CC1CCCC(NC(=O)COC(=O)c2sc3ccccc3c2Cl)C1C (stereo unspecified)	9%	-4%
32	COc1ccc(N2CCN(C(CNC(=O)C(=O)NCCC3=CCCCC3)c3ccco3)CC2)cc1 (stereo unspecified)	-2%	i
33	C=CCn1c(SCC(=O)N(CCC)C2CCS(=O)(=O)C2)nnc1-c1ccccc1OC (stereo unspecified)	0%	i
34	Cn1c(SCC(=O)NC2CCCC2)nnc1-c1ccco1	3%	16%
35	CCCCCCSc1cc(-c2nc3cc(C)ccn3c2NC2CCCCC2)ccc1OC	-29%	-24%
36	CCN(CC)C(=O)CSc1nc(N)c(-c2ccccc2)c(=O)[nH]1	8%	i
37	O=[N+]([O-])c1ccccc1Oc1ccc(Cl)c2cccnc12	-17%	-7%
38	COc1cccc(OCC(O)CN2CCC(C)CC2)c1 (stereo unspecified)	-18%	/
39	COC(=O)c1[nH]c2ccc(C)cc2c1NC(=O)CCN1CCN(Cc2ccc3c(c2)OCO3)CC1	-21%	-2%
40	O=S(=O)(Nc1ncccn1)c1ccc(NC(=S)NCc2ccco2)cc1	-6%	3%
41	Cc1cc(OCc2nc3ccccc3s2)ccc1N	1%	?
42	CN(C)C(=O)c1cn(CCC#N)nc1-c1ccc2ccccc2c1	8%	i
43	Cn1nnnc1SCCCNCc1cccc(OCc2ccc(Cl)cc2)c1	-10%	-13%
44	CCOC(=O)N1CCc2c(sc(NCc3cccc(F)c3)c2C(=O)Nc2ccc(OCC)cc2)C1	-8%[7.34 µM]	-5%[7.34 µM]
45	COc1ccc(NP(=O)(Oc2ccccc2OC)Oc2ccccc2OC)cc1	6%	-6%
46	Cc1ccc2nc(SCC(=O)Nc3cccc(S(=O)(=O)NC4=NCCCCC4)c3)[nH]c2c1	0%	1%
47	COc1ccc(-c2cc(C(=O)O)[nH]n2)cc1OC	-3%	-15%
48	O=C(CC1C[C@H](C(=O)N2CCCCC2)[C@@]2(CCc3ccccc3)c3[nH]c4ccccc4c3CCN2C1=O)NCCC1=CCCCC1 (stereo partly specified)	0%	?
49	Cn1nc(-c2ccccc2F)c2cc(C(=O)Nc3ccc4c(c3)OCCO4)sc21	?	-23%
50	COc1ccc(S(=O)(=O)N2CCCCCC2)cc1NC(=O)Cc1n[nH]c(=O)c2ccccc12	-5%	-11%
51	O=c1cc(C2CCCCC2)[nH]c(=O)[nH]1	7%	-11%
52	Cc1ccc(CNC(=O)CCc2cn(C)c3ccccc23)cc1	-11%&-20%	-18%
53	COc1ccc(S(=O)(=O)N2CCN(CC(=O)Nc3cc(OC)cc(OC)c3)CC2)cc1	0%	-1%
54	CCc1oc2ccccc2c1C(=O)c1cc(Br)c(O)c(Br)c1	-16%	-15%
55	C=CCSSSCC=C	-6%	-14%
56	CC1(C)C2([N+](=O)[O-])CN3CN(C2)CC1([N+](=O)[O-])C3	-6%	-13%
57	O=[N+]([O-])c1ccc(OCCCCN2CCCCC2)cc1	-10%	-12%
58	Cc1cccc(Nc2nnc(SCC(=O)Nc3cccc(S(=O)(=O)N4CCCCC4)c3)s2)c1	-28%	-3%
59	COc1ccc(OCC(=O)Nc2cc(S(=O)(=O)N3CCCC3)ccc2OCC(F)(F)F)cc1	-18%	-1%
60	OC1=C(O)c2nc3cc(C(F)(F)F)ccc3nc21	13%	-16%

# Further records.
nr	mol	VACV Venus inh	Vaccinia mCherry
61	O=C(c1cccc(C(F)(F)F)c1)C1CCCN(Cc2cccn2-c2ccccn2)C1 (stereo unspecified)	-18%	-24%
62	COc1ccc(OC)c(NC(=O)CSc2nnc(Cc3cccn3C)n2-c2ccc(F)cc2)c1	-1%	-10%
63	COc1cc(C(=O)N2CCN(c3ccc(Nc4ccc(C)cc4)nn3)CC2)cc(OC)c1OC	-22%	-23%
64	O=C(CSCc1ccccc1)NCc1ccc2c(c1)OCO2	-4%	-7%
65	COC(=O)c1c(-c2ccccc2)c[nH]c1C	-14%	-11%
66	Cc1cc(C)n2nc(C(=O)OCCOc3cccc(Br)c3)nc2n1	?	i
67	CCCC1=C/C(=C/c2ccc(-c3ccccc3OC)o2)C(=O)O1	21%	-14%
68	C=CCNC(=O)c1c(N)n(-c2cccc(S(N)(=O)=O)c2)c2nc3ccccc3nc12	-37%	/
69	Cn1c(CN2CCCC2)nc2cc(NC(=O)c3ccc(Cl)cc3)ccc21	-28%	-13%
70	O=C(Nc1ccc(F)cc1F)c1c(C(F)(F)F)ccnc1Oc1ccccc1	1%	-3%
71	CN1C(=S)SC(C)(C)C1N(O)C(=O)Nc1ccc(Cl)cc1 (stereo unspecified)	-2%	-7%
72	CCCn1c(CCC(=O)O)ccc1-c1ccccc1	-5%	i
73	CCCCNS(=O)(=O)c1ccc(OC)c(C)c1	2%	/
74	O=C(NCc1cccs1)NC1CCCCC1	-23%	/
75	CCOCCCNC(=O)Cn1ncc2c(=O)oc3ccccc3c21	0%	i
76	COc1ccc(CCNC(=O)CCCn2c(=O)c3ccccc3n(Cc3ccc(C)cc3)c2=O)cc1OC	-2%	-14%
77	CCCCCNc1nc2c(-c3ccccc3)nnn2c2ccccc12	6%	4%
78	COc1ccc(N/C(N)=N/c2nc(C)cc(C)n2)cc1	-27%	-3%
79	CC(C)CCNC(=O)COC(=O)c1cc(Br)c(Br)s1	-1%	-2%
80	Cc1cccc(C)c1NC(=O)C1C2C=CC(C2)C1C(=O)NCc1ccccn1 (stereo unspecified)	-6%	-13%
81	COc1cc(NC(=O)COc2ccc([N+](=O)[O-])cc2)ccc1NC(=O)c1ccco1	-17%	i
82	Cc1cc(C)cc(N(CCC#N)C(=O)COC(=O)C2CCN(c3ccc(C(F)(F)F)cn3)CC2)c1	-19%	-21%
83	COc1ccc(Nc2nc(C)c(-c3ccccc3)s2)cc1	-19%	?
84	CN(C)C(=S)NC1CCS(=O)(=O)C1 (stereo unspecified)	5%	4%
85	O=c1c2cn(Cc3ccc(F)cc3)c3ccccc3c-2nn1Cc1ccc(F)cc1	-7%	-13%
86	CCCCN1CC(COCc2ccccc2)Oc2cccc(Oc3ccc(F)cc3)c2S1(=O)=O (stereo unspecified)	-12%	-19%
87	COc1ccc(-n2nnnc2SCC(=O)Nc2c(C)n[nH]c2C)cc1	-6%	-14%
88	Cc1ccc(-c2nnc(N)s2)cc1	-17%	i
89	Oc1cccc(-c2ccc3nccn3c2)c1	-28%	-24%
90	O=C(Nc1ccc(F)cc1)c1ccccc1	-5%	-17%

# Two entries from above, as labelled records.
81: COc1cc(NC(=O)COc2ccc([N+](=O)[O-])cc2)ccc1NC(=O)c1ccco1
- VACV Venus inh: -17%
- Vaccinia mCherry: i
82: Cc1cc(C)cc(N(CCC#N)C(=O)COC(=O)C2CCN(c3ccc(C(F)(F)F)cn3)CC2)c1
- VACV Venus inh: -19%
- Vaccinia mCherry: -21%

# (continued)
nr	mol	VACV Venus inh	Vaccinia mCherry
91	CC(C)C[C@@H](CN=[N+]=[N-])N1CCN(CCc2ccccc2)CCC1=O	-18%	i
92	CCCNC(=O)N1[C@H]2CC[C@@H]1C(C(=O)OC)=C(c1ccc(OC)c(OC)c1)C2	-5%	-1%
93	COc1ccc2[nH]c(C)c(CCN(Cc3cccs3)C(=S)Nc3ccccc3OC)c2c1	-25%	?
94	CCOC(=O)C1CCN(S(=O)(=O)CCNC(=O)c2ccc3c(c2)OCO3)CC1	-13%	i
95	O=C1NC(=O)/C(=C\c2ccc(Br)o2)S1	-18%	i
96	C(=N\c1nc2ccccc2n1CCN1CCCCC1)/c1ccc2c(c1)OCO2	-3%	-4%
97	COc1cccc(N2CCN(C(=O)Cn3ncc4c5ccccc5n(C)c4c3=O)CC2)c1	-5%	1%
98	CCOC(=O)c1cc2c(=O)n3ccccc3nc2n(CCCOC)c1=NC(=O)c1ccncc1	-12%	-8%
99	COc1cccc(N2CCN(c3ncnc4c3nc3n4CCCCC3)CC2)c1	?	?
100	CC1=NN(C(C#N)c2ccc(F)cc2)C(c2ccccc2)C1 (stereo unspecified)	-1%	-7%
101	COc1ccc(CCc2ccc3ccccc3n2)cc1	-1%	?
102	COc1ccc(NS(=O)(=O)c2cccc(C(=O)N/N=C(\C)c3ccc(-n4ccnc4)cc3)c2)cc1	-12%	i
103	O=C(Nc1ccc(Br)cc1)NC1CCCCCCC1	-14%	i
104	O=C(COC(=O)c1ccc2ccccc2n1)Nc1ccccc1Br	7%	-10%
105	COc1cc(NC(=O)c2oc3c(c2C)-c2nn(Cc4cccc(Cl)c4)cc2CC3)cc(OC)c1	-11%	-27%
106	O=C(NC1CCCCC1)c1n[nH]c2c1CCCCC2	-19%	-2%
107	COc1ccc2[nH]c3c(c2c1)CCN1C(=O)N([C@@H](C)C(=O)NC2CCCC2)C(=O)[C@]31C	5%	-7%
108	O=c1c2cc(NC(=S)NCc3ccccn3)ccc2nc2n1CCCCC2	-13%	i
109	COC(=O)CC1C(=O)NCCN1C(=O)c1cc([N+](=O)[O-])ccc1Cl (stereo unspecified)	-2%	-12%
110	O=C(c1cc(C2CCCCN2C(=O)CCCc2ccccc2)on1)N1CCOCC1 (stereo unspecified)	-16%	i
111	CCN(CC)c1ccc(NC(=O)CCS(=O)(=O)c2ccc3c(c2)oc(=O)n3C)c(C)c1	2%	-9%
112	Cc1cc(=O)[nH]c2nnc(SCc3ccc(Cl)cc3Cl)n12	0%	-9%
113	COC(=O)C1=C(c2ccc(C(C)=O)cc2)C[C@@H]2CC[C@H]1N2C(=O)NCc1ccc(F)cc1	-6%	i
114	CC(=O)Nc1ccc(NC(=O)COC(=O)COc2ccc3ccccc3c2)cc1	-8%	-15%
115	CCOC(=O)[C@]12CCCC=C1N(Cc1ccco1)C(=O)[C@H](CC(=O)NCCCOC)C2	4%	-3%

# Hits appear at their usual frequency (roughly 0.87% active in at least one column).
